HNF4A DNA FP – change in binding of human HNF4 alpha to DNA | activity change, % at 10 µM | 0.3% of 360,000 active | HNF4a-FITC DNA binding, fluorescence polarization, 1 h; in the data active = activity change above about 30%, passing the limit was not always enough;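 note: controls were the assay level and a saturating level of protein; the project sought stronger binding though the title names inhibitors; some compounds called inactive have numbers as strong as hits; positive values seem to mean higher polarization but the record does not say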
Target sequence (P41235 whole entry, looked up): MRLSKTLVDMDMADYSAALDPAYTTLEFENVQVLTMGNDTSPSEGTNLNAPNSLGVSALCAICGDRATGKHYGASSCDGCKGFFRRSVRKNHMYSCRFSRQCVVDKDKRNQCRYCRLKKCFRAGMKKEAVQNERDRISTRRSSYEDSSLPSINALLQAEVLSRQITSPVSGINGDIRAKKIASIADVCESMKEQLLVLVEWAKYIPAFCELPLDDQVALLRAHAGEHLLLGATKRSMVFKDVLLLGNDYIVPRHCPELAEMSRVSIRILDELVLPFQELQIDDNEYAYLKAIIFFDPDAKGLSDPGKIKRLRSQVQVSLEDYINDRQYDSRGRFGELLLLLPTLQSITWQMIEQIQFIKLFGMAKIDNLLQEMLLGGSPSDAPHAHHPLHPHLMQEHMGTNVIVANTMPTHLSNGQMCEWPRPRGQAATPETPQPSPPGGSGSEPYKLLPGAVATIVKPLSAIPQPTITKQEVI
Ecoli growth – inhibitors of Escherichia coli growth. 0.21% of 330,000 active. OD600 absorbance (test concentration not listed). OD600, 23 h; hits give low values;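 active = OD600 absorbance below the run mean of sample wells minus 3.6 SD, in any replicate, cut at about 0.56 in these data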;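 note: stock transfer was 300 nL into about 60 µL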
MLL AF4-AF9 inh – inhibitors of human MLL-AF4/AF9 interaction. 0.47% of 350,000 active. AlphaScreen, biotin-AF4 peptide binding to FLAG-AF9. P42568. inhibition, % at 10 µM. AID 651704;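 active = every replicate reaching a set inhibition limit, whatever the replicate mean, cut at about 25% in these data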;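 note: 0% = plate neutral control median and 100% = total signal loss; the record names both 10 and 1 µM as test concentration; the first replicate is given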
ALR inh – blocks human ALR sulfhydryl oxidase activity | P55789 | purified ALR, DTT oxidation, H2O2 HRP-luminol luminescence | inhibition, % (concentration not given with the values) | 3.8% of 290,000 active;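 active = mean and each replicate at 75% or more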;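 note: stock transfer was 7.5 nL into about 7.5 µL; 0% = neutral wells and 100% = wells with inactivated enzyme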
Target sequence (P55789 whole entry, looked up): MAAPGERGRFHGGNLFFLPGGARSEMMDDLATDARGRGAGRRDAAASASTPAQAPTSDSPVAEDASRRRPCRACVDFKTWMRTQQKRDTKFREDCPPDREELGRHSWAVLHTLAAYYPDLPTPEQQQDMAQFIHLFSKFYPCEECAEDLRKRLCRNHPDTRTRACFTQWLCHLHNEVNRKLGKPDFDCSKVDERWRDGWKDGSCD
FGF22 binding – binders of recombinant human FGF22 by thermal shift | calls only at 9.99 µM | 1.5% of 340,000 active | Q9HCT0 | SYPRO orange fluorescence; percent of sucrose octasulfate shift, DMSO zero;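 active = melting point raised past a set limit in the mean and every replicate; three in four hits are not shown here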
Target sequence (Q9HCT0 whole entry, looked up): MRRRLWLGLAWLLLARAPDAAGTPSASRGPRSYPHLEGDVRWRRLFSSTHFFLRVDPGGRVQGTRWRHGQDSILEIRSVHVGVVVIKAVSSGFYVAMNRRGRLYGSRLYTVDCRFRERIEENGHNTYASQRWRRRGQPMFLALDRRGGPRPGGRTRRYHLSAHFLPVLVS
Vif TR-FRET – HIV-1 Vif–A3G interaction blockers – biochemical, TR-FRET, GST-Vif 1-94, biotin-A3G peptide, dose response retest, primary screen (AID 1117319) | TR-FRET GST-Vif / biotin-A3G peptide binding; higher % means a stronger effect; test concentration not given here; strong numbers were not always called active | inhibition, %; hits with a dose series show IC50 in µM | 0.57% of 260,000 active;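 active = above the screen mean plus three standard deviations and confirmed in dose response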;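 note: Vif residues 1-94 fused to GST binding biotinylated APOBEC3G peptide 110-148; 0% = full assay without inhibitor and 100% = GST in place of GST-Vif; retest series ran down from 100 µM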
Ecoli rRNA inh – inhibitors of bacterial rRNA selective over humanized ribosomes; GFP signal change (wild-type ribosome), % (test concentration not listed); 1.6% of 350,000 active; E. coli WT GFP vs humanized-ribosome RFP mutants, fluorescence, 24 h; hits give low values; DMSO median 0, no signal -100; AID 720706;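 active = significant combined selectivity score with lowered wild-type GFP, culture density cut under 30%, mutant RFP and density less affected; inactive = any of these conditions unmet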; note: one replicate is shown; some compounds called inactive have numbers as strong as hits
Ecoli rRNA inh OD600 – recorded beside Ecoli rRNA inh, whose call it bears; OD600 change, %; measured here: OD600 growth;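 optical density of the mix in the first replicate; 0 = DMSO median and -100 = no signal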
Ecoli rRNA inh RFP – also measured in Ecoli rRNA inh; calls as there; RFP signal change, %; measured here: RFP humanized mutant strains;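 first replicate; 0 = DMSO median and -100 = no signal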
Numbers without * were called inactive; i = inactive; x = not tested or not shown; + = active, no number; & = joins results of further samples.

Ecoli rRNA inh OD600	HNF4A DNA FP	Vif TR-FRET	Ecoli growth	FGF22 binding	Ecoli rRNA inh	Ecoli rRNA inh RFP	ALR inh	MLL AF4-AF9 inh	Molecule
2	-1.6	x	x	i	-4	-0.7	x	2.3	O=C(/C=C/[C@H]1O[C@@H](n2ccc(=O)[nH]c2=O)[C@H](O)[C@@H]1O)N[C@@H](Cc1ccccc1)C(=O)O
-2	-0.4	-16%	x	i	-4	-2.8	-3	-2.3	O=C(CCCCCNC(=O)c1ccccc1)N/N=C/c1ccc(F)cc1
-10	1.6	4%	x	i	-13	-7.1	-9	0.8	C[C@@H](C(=O)Nc1ccc2ccccc2c1)[C@@H]1C[C@@]1(C)[C@@H](NC(=O)c1cnccn1)c1ccccc1
-8	1.9	7%	0.67	i	-5	4.0	-9	12	CSC1=NC(C)(C)C=C(/C=C/c2ccc(Cl)cc2)N1
x	1.2	2%	0.71	x	x	x	3	x	Cc1cn(C(=O)c2ccccc2)c(=S)n1-c1ccc(Cl)cc1
-18	3.5	0%	0.7	x	-9	-3.1	-12	-0.4	COC(=O)CSc1nnc(COc2cccc3ccccc23)o1
x	25	22%	x	x	x	x	53	x	C#CCn1cc(/C=N/NC(=O)COc2cccc3cccnc23)c2ccccc21
-3	-1.8	5%	0.68	i	4	2.4	-13	1.9	CCN1C(=O)CSc2ccc(C(=O)OC)cc21
0	-3.6	3%	0.67	i	15	-1.9	12	-3.2	CC1CCCCN1C(=O)Nc1cccc(C(F)(F)F)c1 (centres undefined)
-13	x	x	x	i	-4	2.6	x	1.7	CCCC(=O)Nc1ccc2c(c1)OC[C@H](C)N(Cc1ccccc1F)C[C@@H](C)[C@H](OC)CN(C)C2=O
x	-73	x	0.62	x	x	x	5	x	O=C1C(=Cc2ccc(Br)o2)C(=O)c2ccccc21
x	2.1	1%	0.68	x	x	x	-3	x	CCOC(=O)C1CCN(C(=O)CCn2c(=O)[nH]c3ccccc3c2=O)CC1
-42	0.6	x	0.68	i	-31	-12	x	1.1	C#CCOc1ccc2ccccc2c1/C=C(/C#N)c1ccc(C(=O)O)cc1
-1	x	x	x	i	0	-0.7	x	-1.7	N#C[C@@H]1[C@@H](c2ccc(C#CC3(O)CCCC3)cc2)[C@@H](CO)N1C(=O)C1CCC1
x	0.8	11%	0.69	x	x	x	1	x	Clc1ccc(CSc2cc3c(nn2)-c2ccccc2CC3)cc1
0	x	x	0.66	i	11	-0.8	-10	-0.4	CCC(C)NC(=S)N1CCN(C)CC1 (centres undefined)
-6	-2.2	-4%	0.66	i	0	0.7	x	2.1	N#Cc1ccc(Oc2c(Cl)cncc2Cl)cc1
4	4.4	-5%	0.7	i	4	6.4	-9	0.2	O=C(COC(=O)c1cccc(OC(F)F)c1)NC1CCCC1
-16	2.8	-7%	0.68	i	-9	0.6	20	-0.5	O=C(CN(Cc1ccc(Br)cc1)S(=O)(=O)c1ccccc1)NCC1CCCO1 (centres undefined)
1	x	x	x	i	1	0.4	x	-1.7	CO[C@@H]1CN(C)C(=O)c2ccc(NC(=O)NC(C)C)cc2OC[C@H](C)N(C(=O)CC2CC2)C[C@@H]1C
9&3	x	x	x	i	12&2	5.1&-4.5	x	-3.1&0.3	C[C@@H]1CN([C@@H](C)CO)C(=O)CCCn2nncc2CO[C@H]1CN(C)CC1CC1
x	0.5	-6%	0.61	x	x	x	2	x	CN(C)S(=O)(=O)c1ccc(Cl)c(NC(=O)COC(=O)CN2C(=O)NC(C)(C)C2=O)c1
x	-2.1	-4%	0.8	x	x	x	0	x	O=C1CN(C(=O)CC2c3ccccc3-c3ccccc32)CC(=O)N1
7	5.6	x	0.72	i	2	0.4	-13	6.0	CCOCCn1c(SCC(=O)OCc2ccccc2)nc2c1c(=O)[nH]c(=O)n2C
-19	-4.8	x	x	i	-14	-1.1	x	-2.1	NC(=O)N/N=C/c1c(O)ccc2oc3c(c12)CCCC3
2	x	x	x	i	2	-1.5	x	0.4	Cn1cnc(S(=O)(=O)N[C@H]2CC[C@@H](CC(=O)NCC3CCCCC3)O[C@@H]2CO)c1
9	-0.6	x	0.71	i	3	-2.9	0	-5.0	CN(CC(=O)Nc1ccc(F)c(F)c1F)C(=O)C1COc2ccccc2O1 (centres undefined)
4	1.1	-1%	0.67	i	4	-0.2	-2	-0.4	CCn1c(SCc2ccccc2F)nnc1-c1ccncc1
x	1.4	3%	0.73	x	x	x	4	x	O=c1[nH][nH]c(C(F)(F)F)c1C=NCc1cccc(Cl)c1
x	0.4	8%	0.68	x	x	x	49	x	Nc1cc(C(=O)O)ccc1N1CCCCCC1
x	x	-2%	0.67	x	x	x	-14	x	O=C1CC(Cc2ccccc2)C(=O)N1CCCn1ccnc1 (centres undefined)
4	x	x	x	i	0	-1.4	x	2.9	COc1cccc(NC(=O)C[C@H]2CC[C@H]3[C@H](COc4ccc(NC(=O)C5CCOCC5)cc4C(=O)N3C)O2)c1
x	-1.7	-1%	0.62	x	x	x	x	x	CC(=O)Nc1ccc(OC(=O)c2cccs2)cc1
12	x	x	x	i	4	-1.5	x	-2.4	Cc1noc(C)c1NC(=O)N(C)C[C@@H]1Oc2c(NC(=O)CCCCCC(=O)Nc3ccccc3N)cccc2C(=O)N([C@@H](C)CO)C[C@@H]1C
3	-4.7	1%	x	i	4	-2.6	-4	0.1	O=C(COc1ccccc1C(=O)NCc1ccncc1)Nc1ccc(Br)cc1
14	3.4	x	x	i	5	-0.4	x	3.2	Cc1cccc(NC(=O)c2cc(S(=O)(=O)N3CCCCC3)c[nH]2)c1
1	-6.7	-4%	0.66	i	1	1.1	-2	-0.9	COc1ccc(NC(=O)CSc2nnnn2C2CCCC2)cc1
x	1.4	7%	0.69	x	x	x	2	x	COc1ccc(C(=O)c2cnc3cc4c(cc3c2C)OCO4)cc1
x	-0.2	0%	0.76	x	x	x	53	x	CC1CC(C)(C)CC2(C1)NC(=S)N(c1ccccc1)N2 (centres undefined)
7	-4.1	6%	0.68	i	-1	1.4	-6	4.9	N=c1oc2ccccc2cc1C(=O)Nc1ccc(F)cc1
-12	x	x	x	i	-3	-1.1	x	2.4	COc1ccc(S(=O)(=O)N(C)C[C@@H]2Oc3ccc(NC(=O)Nc4ccccc4)cc3CC(=O)N([C@@H](C)CO)C[C@H]2C)cc1
3	-0.2	2%	x	i	14	1.8	3	4.0	COc1cc(/C=N/NC(=O)CNc2n[nH]c(=O)[nH]c2=O)ccc1OCc1ccccc1
-1	x	x	x	i	1	-1.2	x	-1.5	C/C=C/c1cnc2c(c1)C(=O)N([C@H](C)CO)C[C@@H](C)[C@H](CN(C)C(=O)Nc1ccc(OC)cc1)O2
5	-0.7	x	0.67	i	2	3.1	x	2.7	COc1ccc(OC)c(C(C(=O)NC2CCCCC2)N(Cc2ccco2)C(=O)c2ccccn2)c1 (centres undefined)
x	1.7	16%	0.65	x	x	x	-3	x	CNC(=O)c1cc2c(s1)CCCCCC2
-1	x	x	x	i	3	-2.4	x	-4.6	CO[C@H]1CN(C)C(=O)c2cc(NC(=O)c3ccno3)ccc2OC[C@@H](C)NC[C@@H]1C
x	0.8	11%	0.66	i	x	x	-5	4.8	N#C/C(=C/c1ccc(-c2ccccc2[N+](=O)[O-])o1)C(=O)NCCN1CCCCC1
-3	x	x	x	i	1	-0.6	x	8.1	Cc1ccc(S(=O)(=O)N(C)C[C@H]2Oc3ccc(NC(=O)Nc4ccc5c(c4)OCO5)cc3CC(=O)N([C@H](C)CO)C[C@H]2C)cc1
-20	-1.6	7%	0.66	i	-17	-3.8	x	-2.0	Cn1c(=O)c(=O)n(C)c2cc([N+](=O)[O-])c([N+](=O)[O-])cc21
-62	-5.1	x	x	i	-23	7.5	x	0.6	CCN(CC)C(=O)c1cccc(-c2csc(C(C)(O)c3cccc(F)c3)n2)c1 (centres undefined)
x	-6.7	14%	x	x	x	x	-5	x	Cc1[nH]n(-c2ccccc2)c(=O)c1/C=N/NC(=O)c1cccc([N+](=O)[O-])c1
x	0.9	0%	x	x	x	x	96*	x	S=c1[nH]nc(C2CCCCC2)n1/N=C/c1cccs1
x	-1.9	0%	0.64	x	x	x	-17	x	COc1ccc(C2=NOC3(CC(=O)N(c4ccc(C)cc4)C3=O)C2)c(OC)c1 (centres undefined)
15	x	x	x	i	3	-0.4	x	-0.2	O=C(C[C@H]1CC[C@H]2[C@@H](COC[C@H](O)CN2C(=O)Cc2ccccc2)O1)NC1CCC1
-27	0.0	x	0.69	i	-14	-16	-9	7.7	COc1ccccc1-c1sc2cc3c(cc2c1-c1ccc(O)cc1)OCO3
-2	-0.1	-5%	x	i	-7	-1.1	0	2.9	CN(C)c1ccc(C(=O)NCc2ccc3c(c2)CCO3)cc1
5	-1.6	-1%	0.73	i	4	2.9	-1	-4.3	O=C(C1CC1)N1CCN=C1SCc1ccccc1
7	-2.6	-1%	0.71	i	12	4.9	x	1.6	Cc1ccc2c(CC(=O)Nc3ccc(F)c(S(=O)(=O)N4CCOCC4)c3)coc2c1
-21	4.5	1%	0.67	i	-10	1.8	x	8.8	COc1cc(C2C(C(=O)c3ccc(C)o3)=C(O)C(=O)N2Cc2ccccc2)ccc1O (centres undefined)
14	3.7	x	x	+	-1	28	x	20	O=c1ccc2nc3ccccc3sc-2c1

Grouped by structure, the entries above containing a cyano group.
Ecoli rRNA inh OD600	HNF4A DNA FP	Vif TR-FRET	Ecoli growth	FGF22 binding	Ecoli rRNA inh	Ecoli rRNA inh RFP	ALR inh	MLL AF4-AF9 inh	Molecule
-42	0.6	x	0.68	i	-31	-12	x	1.1	C#CCOc1ccc2ccccc2c1/C=C(/C#N)c1ccc(C(=O)O)cc1
-1	x	x	x	i	0	-0.7	x	-1.7	N#C[C@@H]1[C@@H](c2ccc(C#CC3(O)CCCC3)cc2)[C@@H](CO)N1C(=O)C1CCC1
-6	-2.2	-4%	0.66	i	0	0.7	x	2.1	N#Cc1ccc(Oc2c(Cl)cncc2Cl)cc1
x	0.8	11%	0.66	i	x	x	-5	4.8	N#C/C(=C/c1ccc(-c2ccccc2[N+](=O)[O-])o1)C(=O)NCCN1CCCCC1

3 entries out of the list, ordered by heavy-atom count, ascending:
Ecoli rRNA inh OD600	HNF4A DNA FP	Vif TR-FRET	Ecoli growth	FGF22 binding	Ecoli rRNA inh	Ecoli rRNA inh RFP	ALR inh	MLL AF4-AF9 inh	Molecule
x	-0.2	0%	0.76	x	x	x	53	x	CC1CC(C)(C)CC2(C1)NC(=S)N(c1ccccc1)N2 (centres undefined)
x	x	-2%	0.67	x	x	x	-14	x	O=C1CC(Cc2ccccc2)C(=O)N1CCCn1ccnc1 (centres undefined)
-18	3.5	0%	0.7	x	-9	-3.1	-12	-0.4	COC(=O)CSc1nnc(COc2cccc3ccccc23)o1

Further compounds:
Ecoli rRNA inh OD600	HNF4A DNA FP	Vif TR-FRET	Ecoli growth	FGF22 binding	Ecoli rRNA inh	Ecoli rRNA inh RFP	ALR inh	MLL AF4-AF9 inh	Molecule
x	-0.2	4%	0.72	x	x	x	x	x	Cn1c(OCc2cccnc2)nc2c1c(=O)n(Cc1ccccc1)c(=O)n2C
4	0.6	x	x	i	7	-1.7	x	-2.8	COc1cccc(Cn2c3ccc(NC(=O)CCc4ccc(F)cc4)cc3c(=O)n2C)c1
7	-0.3	-2%	0.71	i	12	1.5	-2	0.7	COc1ccc(NC(=O)COC(C)=O)cc1Cl
7	1.4	x	0.67	i	4	-7.8	-3	-5.3	O=C(CC1NC(=S)NC1=O)c1ccc(Cl)cc1 (centres undefined)
6	1.6	-15%	0.65	i	-16	7.3	24	0.8	NC(=S)NNC(=O)/C(=C/c1ccc(Br)cc1)NC(=O)c1ccccc1
11	x	x	x	i	2	-3.5	x	-2.8	COCC#Cc1cnc2c(c1)C(=O)N([C@H](C)CO)C[C@@H](C)[C@H](CN(C)S(=O)(=O)c1cn(C)cn1)O2

These rows are one share of the data; count on the stated rates, not on these rows.
